Bioassay records deposited in PubChem by National Center for Advancing Translational Sciences (NCATS).
SARS PLpro yeast: qHTS of Yeast-based Assay for SARS-CoV PLP | S. cerevisiae expressing SARS-CoV PLpro, growth rescue; control for the full effect not named in the record | Potency, µM (highest dose often 32.9 µM), for inactives: top-dose activity, positive = growth rescue | actives 0.19% (n = 330,000) | AID 485353, 2010; further: 0% is about no effect; nearly all actives have a fitted effect of over 55% in size; growth read by luminescence after 48 h
StopGo reporter: High Throughput Screening for Foot and Mouth Disease Virus Antivirals; actives 1.2% (n = 410,000); Potency, µM (top dose mostly 57.9 µM), for inactives: at the top dose signal change, negative = less light; human cells with a luciferase reporter of 2A StopGo recoding; control for the full effect not named in the record; AID 1159524, 2015; active = well fitted falling curve with a large enough effect; inconclusive = small, poorly fitted or top-dose-only effect; inactive = no such curve, though single readings can be large or run the other way; tested in HEK293T cells; further: on the % scale 0 is the no-effect control and ±100 the full control effect; nearly all actives have a fitted effect of over 45% in size; luciferase light after 4 h
RE007 growth inh: qHTS Assay for Inhibitors of the HIV-1 protein Vpr; S. pombe RE007 Vpr strain, BacTiter-Glo ATP luminescence, 24 h; control for the full effect not named in the record; Potency, µM (highest dose often 92.2 µM), inactives show at the top dose activity change, negative = less growth; actives 0.21% (n = 360,000); active = well fitted falling curve with a large enough effect; inconclusive = small, poorly fitted or top-dose-only effect; inactive = no such curve, though single readings can be large or run the other way;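 further: on the % scale 0 is the no-effect control and ±100 the full control effect; nearly all actives have a fitted effect of over 50% in size; the assay follows cell death caused by Vpr and the record does not say whether a fall means rescue or toxicity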
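Fission yeast strain RE007, carrying one chromosomally integrated HIV-1 vpr copy, was seeded at OD 0.01 in PMG+AL medium with 23 nL pinned compound. After 24 h at 30 °C and 99% humidity, viability was read by BacTiter-Glo luminescence.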
Lassa entry inh: qHTS for Inhibitors of binding or entry into cells for Lassa Virus. Lassa virus pseudotype entry inhibition, cell reporter; control for the full effect not named in the record. Potency, µM (top dose mostly 37.9 µM), for the others: at the top dose activity change, negative = inhibition, usual class: inhibitors. actives 1.2% (n = 300,000); active means well fitted inhibition curve with a large enough effect; inconclusive means small, poorly fitted or top-dose-only effect, or effect the other way; inactive means flat fitted curve, though single readings scatter; tested in HEK293 cells; further: on the % scale 0 is the no-effect control and ±100 the full control effect; nearly all actives have a fitted effect of over 50% in size; luciferase read-out
Cruzain inh noDet: qHTS Assay for Promiscuous and Specific Inhibitors of Cruzain (without detergent); Cruzipain (Trypanosoma cruzi), P25779; purified cruzain, Z-FR-AMC fluorescence, no detergent; Potency, µM, inactives show max response, negative = inhibition, most hits filed as inhibitors; actives 2.3% (n = 200,000); AID 1476, 2009; active means well fitted curve in the direction sought with a large enough effect; inconclusive means small, poorly fitted or top-dose-only effect, or another doubt; inactive means no such curve, though single readings can be large; an effect the other way counts as inactive or inconclusive;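 further: plate controls were enzyme without inhibitor for no effect and buffer without enzyme for full effect; nearly all actives have a fitted effect of over 40% in size; top concentration of the series not given in the record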
Target sequence (P25779 123-467 limits assumed): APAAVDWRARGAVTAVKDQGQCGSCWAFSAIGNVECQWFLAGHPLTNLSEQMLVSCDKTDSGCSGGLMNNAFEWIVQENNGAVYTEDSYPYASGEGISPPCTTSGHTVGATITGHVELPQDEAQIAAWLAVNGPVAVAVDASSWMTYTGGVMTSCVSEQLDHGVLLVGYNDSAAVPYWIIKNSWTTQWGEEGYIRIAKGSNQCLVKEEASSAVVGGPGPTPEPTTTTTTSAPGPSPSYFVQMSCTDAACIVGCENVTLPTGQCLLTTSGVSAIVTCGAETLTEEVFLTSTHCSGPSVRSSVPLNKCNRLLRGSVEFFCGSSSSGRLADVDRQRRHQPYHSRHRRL
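Detergent-free condition (0.00005% Triton X-100) in acetate buffer pH 5.5 with DTT. 1.5 nM enzyme and compound were pre-mixed 15 min, then 2 uM Z-FR-AMC substrate added; reaction progress from fluorescence change between first and third reads (60 s).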
Cruzain Triton: qHTS Assay for Promiscuous and Specific Inhibitors of Cruzain (with detergent) | actives 0.43% (n = 200,000) | purified cruzain, Z-FR-AMC fluorescence, 0.01% Triton | AID 1478, 2009 | Potency, µM, for the others: max response, negative = inhibition, usual class: inhibitors | Cruzipain (Trypanosoma cruzi), P25779; active means well fitted curve in the direction sought with a large enough effect; inconclusive means small, poorly fitted or top-dose-only effect, or another doubt; inactive means no such curve, though single readings can be large; an effect the other way counts as inactive or inconclusive;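 further: plate controls were neutral wells for no effect and buffer without enzyme for full effect; nearly all actives have a fitted effect of over 40% in size; top concentration of the series not given in the record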
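Enzyme 1.5 nM, Z-FR-AMC 2 uM, NaOAc 100 mM pH 5.5, DTT 5 mM, Triton X-100 0.01%; 15 min RT compound preincubation; kinetic ex360/em450, 60 s delta.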
NS1 function inh: qHTS Assay for Inhibitors of Influenza NS1 Protein Function; S. cerevisiae slowed by influenza A NS1, growth recovery by OD600; AID 2326, 2010; actives 0.4% (n = 270,000); Potency, µM (highest dose often 46.1 µM), inactives show top-dose activity, positive = more growth; further: actives are rising curves; nearly all actives have a fitted effect of over 50% in size
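Read-out: OD600 growth recovery of NS1-expressing budding yeast. Cells grown overnight at 30C in -URA glucose medium, washed, resuspended and diluted 1:100 in 2% galactose assay medium, pH 6.0. Same strain lacking NS1 served as positive control.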
Marburg entry inh: qHTS for inhibitors of binding or entry into cells for Marburg Virus | actives 1.8% (n = 300,000) | Marburg virus pseudotyped entry inhibition, cell reporter; control for the full effect not named in the record; about a third of the inactives were read at about 46 µM | AID 540276, 2011 | Potency, µM (top dose mostly 37.8 µM), without a hit: at the highest dose activity change, negative = inhibition, hits mostly inhibitors; active = well fitted inhibition curve with a large enough effect; inconclusive = small, poorly fitted or top-dose-only effect, or effect the other way; inactive = flat fitted curve, though single readings scatter; tested in HEK293 cells; about a fifth of its hits are not listed in these tables; further: on the % scale 0 is the no-effect control and ±100 the full control effect; luciferase read-out
* marks the source's active call; other numbers are inactive results; ? = inconclusive; · = not tested or not shown; & = joins results of further samples; [ ] = remark or other dose. Unless noted, the call rests on the fitted dose curve; in most records, active means well fitted rising curve with a large enough effect; inconclusive means small, poorly fitted or top-dose-only effect; inactive means no such curve, though single readings can be large or run the other way. Potency means the concentration at half of the fitted maximal effect. The order is random; 4.7% or so of the library scored in one or more.

SMILES	SARS PLpro yeast	StopGo reporter	RE007 growth inh	Lassa entry inh	Cruzain inh noDet	Cruzain Triton	NS1 function inh	Marburg entry inh
O=C(Cn1cc(/C=C\[N+](=O)[O-])c2ccccc21)Nc1ccccc1	-1%	13µM*	8%	?	·	·	8%	?
CCOc1ccccc1NC(=O)C1CCCN(S(=O)(=O)c2cccc3nsnc23)C1 (stereo unspecified)	8%	?	5%	-30%	-22%	-6.2%	-19%	?
O=C(COc1nncc2ccccc12)Nc1ccc(Br)cc1F	-1%	-11%	-7%	-13%[46.1 µM]	·	·	·	?
COCc1cc(/C=N\NC(=O)c2ccc(Cl)cc2)ccc1OC	-16%	-10%	14%	?	-12%	-9.0%	1%	5%
CCOc1ccc(NC(=O)NCc2ccco2)cc1	-1%	27%	-1%	·	·	·	-2%	·
O=S(=O)(Cc1ccccc1)Nc1ccc(S(=O)(=O)NCC2CCCO2)cc1 (stereo unspecified)	2%	·	9%	-5%	9%	0.6%	-5%	-2%
COc1cccc(C(=O)Nc2ccc(N3CCN(S(C)(=O)=O)CC3)cc2)c1	-4%	·	-9%	8%	-12%	-1.4%	5%	-1%
COc1ccc(NC(=O)CSc2nc3c(c(=O)n2-c2ccccc2OC)SCC3)cc1	5%	-11%	3%	·	-8%	-2.6%	-12%	·
Cc1ccc(N2C(=O)c3ccccc3C2Nc2ccc(S(=O)(=O)N3CCOCC3)cc2)nc1 (stereo unspecified)	-4%	55%[activator]	4%	·	6%	0.1%	2%	-1%
CCn1c(=O)c(CCC(=O)NCCN2CCOCC2)c(C)c2c(C)nn(-c3cccc(C)c3)c21	-1%	-15%	-1%	·	·	·	13%	·
Cc1cccc(C(=O)NC2CC3CCCC(C2)N3Cc2ccccc2)c1 (stereo unspecified)	0%	-5%	3%	-11%[46.1 µM]	·	·	-7%	3.2µM*
O=C(CN1C(=O)COc2ccc(Cl)cc21)Nc1cccc(C(=O)O)c1	·	-4%	·	0%[46.1 µM]	2%	-1.1%	·	?
Cc1cc(C)nc(SC(C)CNS(=O)(=O)c2ccccc2)n1 (stereo unspecified)	-1%	8%	43%	0%	·	·	·	4%[46.1 µM]
COc1ccc(C(=O)NCC(=O)NCc2ccncc2)cc1	10%	-8%	1%	0%	·	·	·	-15%
O=C(CSc1nnc(C2CC2)n1CC1CCCO1)Nc1ccc(Cl)cc1 (stereo unspecified)	-2%	28%	-11%	1%	·	·	-1%	10%[46.1 µM]
CCN1CCN(C2=C(NS(=O)(=O)c3ccc(Br)cc3)C(=O)c3ccccc3C2=O)CC1	-1%	-1%	-21%	·	·	·	1%	·
COc1ccc(/C=C2\Oc3cc(OCC(=O)N4CC(O)C[C@H]4C(=O)O)ccc3C2=O)c(OC)c1OC (stereo partly specified)	14%	6%	1%	·	·	·	36%	·
Nc1cc(OC(=O)c2cccs2)nn1S(=O)(=O)c1ccccc1	6%	7%	2%	-7%	?	-21%	-3%	8%[46.1 µM]
NC(=O)CC1SC(N)=NC1=O (stereo unspecified)	4%	-1%	6%	?	-7%	-12%	5%	7%
COc1cc(NC(=O)c2cc(C)no2)cc(OC)c1OC	7%	-9%	9%	15%[46.1 µM]	·	·	0%	4%[46.1 µM]
COc1ccc(C2=NS(=O)(=O)N(C)C(C(=O)NC3CCCCC3)=C2)cc1	0%	-16%	-7%	·	·	·	1%	·
O=C(COC(=O)c1cc([N+](=O)[O-])ccc1N1CCOCC1)Nc1ccccc1OC(F)F	-4%	-9%	5%	?	·	·	·	-13%
O=C(CN1C(=O)NC2(CCSC2)C1=O)N1CCN(c2ccc(F)cc2)CC1 (stereo unspecified)	0%	-15%	-10%	15%	7%	0.2%	2%	-11%
Cc1ccc(Oc2nn[nH]n2)cc1	-2%	17%	1%	-19%[14.3 µM]	-6%	5.2%	-1%	2%
COc1cc(C(=O)NCc2cn3cccc(C)c3n2)cc(OC)c1OC	-1%	0%	-2%	·	-5%	7.1%	-31%	·
Cc1c(CCC(=O)O)c(=O)oc2cc3occ(-c4ccc(F)cc4)c3cc12	-9%	-3%	9%	7%	?	-27%	-98%	?
Cc1ccccc1OCC(O)CN1CCN(CCN2C(=O)c3cccc4cccc(c34)C2=O)CC1 (stereo unspecified)	-7%	?	29%	?	1%	-12%	-4%	?
CC(NC(=S)NNS(=O)(=O)c1ccc(C(C)(C)C)cc1)c1ccccc1 (stereo unspecified)	0%	3%	18%	·	·	·	-2%	·
CCCN(CCC)C(=O)CC(c1ccccc1)c1ccco1 (stereo unspecified)	-3%	-11%	5%	?	·	·	3%	-9%
O=C(COc1ccc(Br)cc1)Nc1cc(S(=O)(=O)N2CCCCC2)ccc1N1CCCCC1	-3%	-21%	1%	10%	?	-5.1%	4%	0%
O=C(CSCc1ccc(Cl)c(Cl)c1)Nc1c[nH]c(=O)[nH]c1=O	6%	-20%	3%	1%	?	-2.4%	3%	?
Cc1ccc(N(Cc2ccco2)C(=O)c2cccc(S(=O)(=O)N(C)C)c2)cc1	1%	17%	-30%	?	9%	-0.3%	-10%	-20%
O=c1[nH]cnc2c1sc1nc3c(c(-c4ccc(Cl)cc4)c12)CCC3	4%	?	6%	0%	5%	-3.1%	9%	?
COc1ccccc1CNC(=O)CSc1ncc(C(=O)Nc2ccccc2)c(=O)n1C	1%	?	-3%	11%	·	·	·	?
COc1ccc(NC(=O)Cn2c(=O)n(CC(=O)NCc3ccco3)c(=O)c3ccccc32)cc1	3%	22%	21%	13%	7%	-4.7%	16%	-22%
O=C(CSc1nc2ccccc2[nH]1)N1CCCCC1	0%	80%[activator]	-9%	60%[14.3 µM]	-3%	6.4%	3%	22%
COc1ccc(CCNC(=O)c2c(C)oc3ncnc(N4CCOCC4)c23)c(OC)c1	·	0%	·	?	-1%	-0.9%	·	·
CSc1nc(N)nc(-c2cccs2)c1C#N	-28%	-8%	?	2%	4%	-8.9%	-57%	?
Cc1ccc(F)cc1NCC(=O)Nc1ccc(Cl)cc1F	-5%	19%	1%	2%	-2%	-5.8%	-10%	-4%
COc1ccc(NC(C)=O)cc1S(=O)(=O)Nc1ccccc1C(=O)NCCc1ccccc1	1%	62%[activator]	2%	?	·	·	-1%	-11%
CN(c1ccc(Br)cc1)S(=O)(=O)c1ccc2[nH]cc(C(=O)NCCN3CCOCC3)c(=O)c2c1	-1%	-18%	-7%	26%[46.1 µM]	·	·	8%	?
CC(C)C(NS(=O)(=O)c1ccc2c(c1)oc(=O)n2C)C(=O)NCCc1ccc(Cl)cc1 (stereo unspecified)	·	1%	·	-20%[46.1 µM]	-2%	2.5%	·	-13%[46.1 µM]
Cc1ccc(N2C(=O)C3C4C=CC(CNC(=S)Nc5ccc(F)cc5)(O4)C3C2=O)cc1 (stereo unspecified)	-82%	0%	10µM*	-2%	10%	-6.8%	-55%	?
CN(C)S(=O)(=O)c1cc(NC(=O)c2cc(=O)c3ccccc3o2)ccc1Cl	-1%	-15%	1%	-30%[46.1 µM]	·	·	22%	-1%[46.1 µM]
Cc1ccn(C(=O)c2ccc(NC(=O)C3CCCCC3)cc2)n1	3%	8%	-23%	12%	-2%	-2.3%	-32%	?
CCN(C(=O)Cc1cccs1)c1nnc(-c2cc(OC)c(OC)c(OC)c2)s1	0%	-8%	-17%	?	?	-3.2%	-39%	-10%[46.1 µM]
CN(C)S(=O)(=O)N1CCN(CC(=O)Nc2ccc(Br)cc2)CC1	13%	-15%	3%	·	·	·	-5%	·
CC(=O)N1CCc2c(sc3c2c(=O)n(-c2ccccc2Cl)c(=O)n3Cc2cccc(C)c2)C1	·	-29%	·	-38%[46.1 µM]	?	-3.3%	·	·
COc1c(Cl)cnn(-c2ccccc2)c1=O	2%	-17%	6%	?	5%	-0.4%	-4%	?
CCOC(=O)CCCSc1nc2sc3c(c2c(=O)[nH]1)CCC3	2%	6%	-13%[3.69 µM]	3%	-8%	2.2%	3%	-20%

The list continues:
SMILES	SARS PLpro yeast	StopGo reporter	RE007 growth inh	Lassa entry inh	Cruzain inh noDet	Cruzain Triton	NS1 function inh	Marburg entry inh
CCCCNC(=O)NNC(=O)c1ccoc1C	3%	29%	-16%	8%	-4%	2.5%	2%	-4%
CCNC(=O)CN(CCc1ccccc1)S(=O)(=O)c1ccc(OC)cc1	-2%	0%	26%	?	-5%	4.5%	2%	-15%
COc1cccc(C(=O)n2nc(-c3ccco3)nc2NCc2cccs2)c1	·	30%	·	-1%[46.1 µM]	-1%	-3.7%	·	4%[46.1 µM]
COc1ccc(C)cc1-n1nnnc1SCc1nc2ccccc2c(=O)[nH]1	-4%	?	12%	-10%	·	·	·	?
[O-]/C(=C(\C(=S)Nc1ccc(SC(F)F)cc1)[n+]1ccccc1)c1ccc(Cl)cc1Cl	-3%	-8%	-6%	?	·	·	-2%	?
CC(=O)Nc1cccc(OCC(=O)NC(C)c2ccc3ccccc3c2)c1 (stereo unspecified)	-1%	-7%	-4%	?	·	·	16%	-6%[46.1 µM]
Cc1oc(-c2ccccc2)nc1CS(=O)CC(=O)NC1CCCC1 (stereo unspecified)	8%	4%	-1%	·	·	·	?	·
COc1ccc(C(=O)NC2CCSc3ccccc32)cc1 (stereo unspecified)	6%	1%	7%	·	·	·	-6%	·
CC1CCCCC1NC(=O)CSc1nnc(COc2ccccc2Cl)o1 (stereo unspecified)	0%	27%	2%	12%	5%	1.3%	1%	-4%
COc1ccc(N2CCN(CCCNC(=O)CN3CCN(Cc4ccccc4C)C3=O)CC2)cc1	-5%	-22%	10%	-6%	-4%	5.3%	1%	-4%&-4%
